HSD17B inhib: qHTS Assay for Inhibitors of HSD17B4, hydroxysteroid (17-beta) dehydrogenase 4; 3-hydroxyacyl-CoA dehydrogenase type-2 (Homo sapiens), Q99714; recombinant HSD17B10, NADH fluorescence kinetic; many of its hits are not listed in these tables; Potency, µM (titrated, usually from 57.1 µM), for the others: at the top dose activity change, negative = inhibition, hits mostly inhibitors; 75,000 tested, 7.6% active; AID 893, 2007; active = well fitted inhibition curve with a large enough effect; inconclusive = small, poorly fitted or top-dose-only effect; inactive = no such curve, though single readings can be large or run the other way;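 note: the protocol describes HADH2 (HSD17B10) and not the HSD17B4 of the title; nearly all actives have a fitted effect of over 70% in size; most hits overshoot -100% by far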
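His-tagged E. coli-expressed HADH2 at 20 nM in 100 mM Tris-HCl pH 9.0 with 0.01 % Tween-20, preincubated 15 min with compound at room temperature. Reaction with 1 mM NAD+ and 90 uM beta-hydroxybutyryl coenzyme A; NADH fluorescence (360/450 nm) read kinetically over 4 min, last minus first point.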
* hit, by the source's call; u = inconclusive; [ ] = remark or other dose. % is set by controls: 0 for no effect and ±100 for the full control effect; potency is the fitted concentration of half-maximal effect. Only part of the results is shown; count on the stated rates, not on these rows.

SMILES	HSD17B inhib
O=S(=O)(C/C(=C/CO)S(=O)(=O)c1ccccc1)c1ccccc1	-3.7%
Nc1nc(CN2CCN(c3ccc(F)cc3)CC2)nc(N2CCCc3ccccc32)n1	-4.4%
O=C1C=CC(=O)C2=C1C1c3ccccc3C2c2ccccc21	1µM*
COC(=O)c1cc(C(=O)OC)cc(N2C(=O)CC(Sc3nc(C)cc(C)n3)C2=O)c1 (stereo not drawn)	-20.9%
O=C(CSc1nc2c(cnn2-c2ccccc2)c(=O)[nH]1)N1CCOCC1	-2.3%
CC(C)NC(=O)c1n[nH]c(=O)c2ccccc12	1.6%
Cc1ccccc1C(=O)NC1CCN(CC(=O)Nc2nccs2)CC1	7.5%
CCN(CC)c1ccc(NS(=O)(=O)c2ccc3c(c2)oc(=O)n3C)c(C)c1	u
Cc1c(Cl)cccc1NC(=O)CCCCCN1C(=O)CCC1=O	-11.8%
Cc1ccc(CCN2C(=O)CCC2(C)C(=O)NC2CCCC2)cc1 (stereo not drawn)	1.7%
COC(=O)c1ccc(C(NC(=O)OCc2ccccc2)/C(=C/[C@@H](C)C(=O)NCc2cc(C)n(C)n2)c2cccnc2)cc1 (stereo partly drawn)	-2.2%
CCCCOCCCNC(=O)Cc1ccccc1OC	10.9%
COc1cc(-n2nnnc2SCC(=O)N2CCN(c3ccc(F)cc3)CC2)c(OC)cc1Cl	47.2%[activator]
Cc1nnc(NC(=O)C2CCCO2)s1 (stereo not drawn)	-1.7%
COc1ccc(OC)c(C(=O)CSc2nc3c(c(=O)n(C)c(=O)n3C)n2C(C)C)c1	1.9%
COc1ccc(N=CC2=C(O)CCCC2=O)cc1	-6.5%
COc1ccccc1NC(=O)CN1CCN(C2c3ccccc3-c3ccccc32)CC1	-2.2%
CCC(C)Sc1nc2c(c(=O)[nH]c(=O)n2C)n1Cc1ccc(Cl)cc1 (stereo not drawn)	3.6%
CC(=O)c1ccc(OCCCC(=O)NCC(c2ccco2)N(C)C)cc1 (stereo not drawn)	-0.2%
Nc1c(C(=O)NCc2ccco2)nnn1-c1ccccc1	5.8%
C/C(O)=C(/N=O)C(=O)Nc1ccccc1	10.1%
O=S(=O)(Nc1ccccc1N1CCOCC1)c1ccc(Cl)s1	-1.6%
CCCOc1ccccc1NC(=O)c1c(-c2ccccc2)noc1C	-5.0%
O=C(CN1CCOCC1)OCCCc1ccccc1	4.9%
CCC(CO)N=CC1=C(O)C(C(=O)c2ccccc2)CCC1=O (stereo not drawn)	0.8%
COC(=O)c1ccccc1NC(=O)c1c(O)c2cccc3c2n(c1=O)CCC3	5.3%
Cc1ccc(N2C(=O)[C@@H]3[C@H](C2=O)C2c4ccccc4C=CN2[C@@H]3C(=O)c2ccco2)cc1 (stereo partly drawn)	-27.1%
Nc1nc(-c2ccccc2)c(CC(=O)O)s1	9.9%[11.4 µM]
Cn1ccnc1C(O)c1ccco1 (stereo not drawn)	5.3%
CCOC(=O)CC(=O)CSc1ncc(C(=O)OCC)c(N)n1	12.6µM*
C=CC[C@@H]1C=C[C@H](O/N=C(\C)CCN2CCc3nc(-c4ccccc4)c(-c4ccccc4)cc3C2)[C@H](CO)O1	-0.5%[11.4 µM]
CS(=O)(=O)NCc1ccc(C(=O)NCc2ccccc2)cc1	0.1%
COC(=O)CN1CCN(C(=O)c2ccc(F)cc2)c2ccccc2C1	-3.6%
COc1ccccc1CC(=O)N1CCCC1	2.7%
COC(=O)c1c(NC(=O)CN2CCN(Cc3ccc4c(c3)OCO4)CC2)sc(C)c1C	u
Cc1cc(NC(=O)C(C)C)ncc1NC(=O)Cc1ccccc1	-3.1%
O=C(CN1CCN(Cc2ccccc2)CC1)NC(=O)NCc1ccco1	3.6%
CCc1cc(=O)oc2cc3oc(C)c(C)c3cc12	-26.2%
COc1ccc(-c2cc(=O)c3c(O)c(OC)c(O[C@@H]4OC(COC5OC(C)C(O)C(O)[C@@H]5O)C(O)C(O)C4O)cc3o2)cc1 (stereo partly drawn)	9.3%
C[C@@]12C[C@H](O)[C@@H]3[C@H](CCC4=CC(=O)CC[C@]43C)[C@H]1CC[C@@H]2c1csc(N)n1	9.4%[11.4 µM]
N[C@@H](Cc1ncccn1)C(=O)O	0.2%[11.4 µM]
CC(=O)c1c(C)cc(C)c(CSc2nnc(-c3ccco3)o2)c1C	-1.7%
Cc1ccc2c(c1)N(CCC(=O)NCc1ccco1)C(=O)CO2	8.0%
O=C(CCc1nc(-c2ccccc2F)no1)NCCN1CCOCC1	2.3%
CCN1C(=O)[C@H]2[C@H]3[C@H](O)[C@H](O)C/C(=N/O[C@@H]4O[C@@H](COC(C)=O)[C@@H](OC(C)=O)[C@@H](OC(C)=O)[C@H]4OC(C)=O)[C@@H]3CC[C@@H]2C1=O	0.3%[11.4 µM]
Cc1cc(C)n(Cc2ccc(C(=O)O)o2)n1	-10.0%
Cc1cc(C)n(Cc2ccc(C(=O)NCc3ccco3)o2)n1	-1.2%
C=CCc1c(C)nc(SC(C)C)[nH]c1=O	-1.5%
CN(C)C(=O)c1ccc(-c2nc(-n3ccnc3)c3ccccc3n2)cc1	10.2%
O=S(=O)(c1ccc(F)cc1)c1nc(-c2ccc(F)cc2)oc1NCCN1CCOCC1	3.6%
CCN(CC)c1ccc(-c2nc3cnccc3n2C)cc1	25.1µM*
COCCn1c(=O)[nH]c2cc(C(=O)NCCN3CCN(c4ccccc4)CC3)ccc2c1=O	25.1µM*
Cc1ccc(S(=O)(=O)N(C)CC(=O)N2CCN(C(=O)c3ccco3)CC2)cc1	-1.6%
Cc1nc(N2CCOCC2)c2cc(-c3ccccc3)sc2n1	31.6µM*
c1ccc(-c2csc3nnc(SCc4ccc5c(c4)OCO5)n23)cc1	-3.9%
CC1CCc2nn(CC(=O)N3CCCCCC3)cc2C1 (stereo not drawn)	0.1%
c1ccc(Cn2nnc3c(NCC4CCCO4)ncnc32)cc1 (stereo not drawn)	-4.2%
O=CNCC(=O)NCCc1ccc(Cl)cc1	4.9%
CCc1ccccc1N(CC(=O)N1CCN(c2ccccc2)CC1)S(C)(=O)=O	1.9%
O=C(O)CC(CP(=O)(c1ccccc1)c1ccccc1)C(=O)O (stereo not drawn)	1.2%

Entries listed so far containing a Cl atom (5):
SMILES	HSD17B inhib
Cc1c(Cl)cccc1NC(=O)CCCCCN1C(=O)CCC1=O	-11.8%
COc1cc(-n2nnnc2SCC(=O)N2CCN(c3ccc(F)cc3)CC2)c(OC)cc1Cl	47.2%[activator]
CCC(C)Sc1nc2c(c(=O)[nH]c(=O)n2C)n1Cc1ccc(Cl)cc1 (stereo not drawn)	3.6%
O=S(=O)(Nc1ccccc1N1CCOCC1)c1ccc(Cl)s1	-1.6%
O=CNCC(=O)NCCc1ccc(Cl)cc1	4.9%

Other entries.
SMILES	HSD17B inhib
CCn1ncc2c1C(=O)NC1c3ccccc3C(=O)N21 (stereo not drawn)	-12.4%
COc1cccc(-c2cc(C(=O)NCCN3CCOCC3)no2)c1	1.4%
CC1Cc2ccccc2N1C(=O)C1CCN(S(=O)(=O)Cc2ccccc2)CC1 (stereo not drawn)	-1.0%
CCc1nc(SCC(=O)NCCc2ccccc2)n[nH]1	1.0%
CCOC(=O)CSc1nc2sc(C(=O)O)c(C)c2c(=O)[nH]1	0.8%
COc1ccc(Br)cc1C(=O)Nc1nnn(C)n1	4.8%
CC1CCN(S(=O)(=O)c2ccc(NC(=O)CN3CCN(c4ccccc4)CC3)cc2)CC1	1.7%
CCCC(=O)NC(Nc1ccc(S(=O)(=O)Nc2ncccn2)cc1)(C(=O)OCC)C(F)(F)F (stereo not drawn)	4.0%
CCc1nc(N2CCCCC2C)c2oc3ccccc3c2n1 (stereo not drawn)	-5.7%
CCOC(=O)N=S(N)(=O)c1ccccc1 (stereo not drawn)	13.6%
c1csc(-c2nn3c(C4COc5ccccc5O4)nnc3s2)c1 (stereo not drawn)	20µM*
CCCC(=O)Nc1ccc2c(c1)nc(CN1CCCCC1)n2C	-11.0%
C=CCNc1nc(NCCN2CCOCC2)nc(N2CCOCC2)n1	-15.2%
CCc1ccc2[nH]c(=O)c(CN(Cc3ccc4c(c3)OCO4)Cc3nnnn3C3CCCC3)cc2c1	u
O=C(O)CCN1/C(=C/C=Nc2ccccc2)Oc2ccccc21	-15.2%
COc1ccc(N2CCN(C(=O)c3cn(C)c(=O)c4c3c3ccccc3n4C)CC2)cc1	2.1%
O=S(=O)(/C=C/c1ccccc1)n1cnc2ccccc21	1.6%
O=C1N(CCCCN2C(=O)C3(OCCO3)c3ccccc32)c2ccccc2C12OCCO2	-5.1%
CC(C)NS(=O)(=O)c1ccc(OCC(=O)NCc2ccc3c(c2)OCO3)c(Cl)c1	-18.7%
O=C(O)CSc1nc2ccccc2[nH]1	1.2%[11.4 µM]
CCOC(=O)c1cn(CC(=O)Nc2ccccc2C(=O)OCC)nn1	-10.3%
COc1ccc(S(=O)(=O)N2CCC(O)(c3ccc4c(c3)OCO4)CC2)cc1	1.9%
Cn1nnc2cc(NC(=O)N3CC4(C)CC3CC(C)(C)C4)ccc21 (stereo not drawn)	u
Cc1ccc(NC(=O)CSc2nnc([C@@H]3CCCN3C(=O)OC(C)(C)C)o2)c(C)c1	-1.3%
O=C(NCc1cccs1)C1CCCN(S(=O)(=O)c2cccc3cccnc23)C1 (stereo not drawn)	5.8%
CCCc1c(C(=O)OCC)[nH]c2c1C(=O)CCC2	2.0%
CSCCC(NS(=O)(=O)c1cccs1)C(=O)NCc1cccs1 (stereo not drawn)	-5.3%
O=C(CSc1nnnn1C1CCCC1)c1ccc2c(c1)OCCO2	-10.5%
CCCCc1ccc(-c2nc(N)n[nH]2)cc1	-1.1%
COC(=O)C1(S(=O)(=O)c2cc(Br)cc3c2N(C(C)=O)CC3)CC1	-2.2%
CCOc1ccccc1-n1c(CN2CCN(C(=O)c3ccco3)CC2)nc2ccccc2c1=O	2.8%
c1ccc2c(-n3ccnc3)nc(-c3ccoc3)nc2c1	u
O=C(CSc1nccn1Cc1ccccc1)Nc1nccs1	2.5%
COc1ccc(CCn2nnnc2C(C(C)C)N2CCC(C(N)=O)CC2)cc1OC (stereo not drawn)	1.7%
COc1ccc(C2(CNC(=O)CCC(=O)O)CCCC2)cc1	12.4%
COc1ccc(C(=O)N(CC(=O)NC(C)(C)C)c2ccc3c(c2)OCCO3)cc1OC	2.9%
N#CC1(c2nc3ccccc3[nH]2)CC1c1ccc2c(c1)OCO2 (stereo not drawn)	-3.6%
CNC(=O)CSc1nnc(-c2ccncc2)n1Cc1ccccc1	10.6%
Oc1c(/C=N/c2ncn[nH]2)ccc2ccccc12	-26.4%
CCOC(=O)N1CCC(Nc2cccc(SC)c2)CC1	-10.1%
O=C(c1cnn2c1NC(c1ccco1)CC2C(F)(F)F)N1CCN(c2cccc(Cl)c2)CC1 (stereo not drawn)	5.4%
CCN(CC(=O)Nc1ccc2c(c1)OCCO2)C(=O)C1CCCCC1	1.2%
Cc1ccc2nc(NC3=NCN(CCc4ccccc4)CN3)nc(C)c2c1	3.1%
O=C(CCN1C(=O)C2C3C=CC(C3)C2C1=O)N1CC(=O)N(CCc2ccccc2)C(=O)C1 (stereo not drawn)	12.1%
Cc1ccccc1-c1nc(CS(=O)(=O)CC(=O)N2CCc3ccccc32)c(C)o1	-4.3%
COc1ccccc1NC(=O)CN1CCN(c2ccccc2F)CC1	-2.6%
O=C(Cn1ncn2c(cc3ccccc32)c1=O)NCc1ccco1	25.1µM*
Cc1cccc2cc(CN(Cc3ccco3)C(c3nnnn3CCc3ccccc3)C(C)C)c(=O)[nH]c12 (stereo not drawn)	-12.2%
Cc1nc2scc(-c3cccs3)c2c(=O)n1-n1cccc1	u
CN=C(Nc1cc(C)nn1CCC#N)c1ccccc1F	0.9%
c1coc(-c2nnc(NC3=NCCC3)o2)c1	-1.0%
Cn1c(=O)c2[nH]c(-c3ccc(S(=O)(=O)O)cc3)nc2n(C)c1=O	15.8µM*
COC(=O)c1nnn(-c2nonc2N)c1CSc1nc2ccccc2s1	-2.0%
CC(=O)c1ccc(N2CCN(C(=O)COc3ccc(F)cc3)CC2)c(F)c1	-3.1%
CC1CCCN(Cc2nc3c(c(=O)n(C)c(=O)n3C)n2CC(N)=O)C1 (stereo not drawn)	14.8%
CC(C)(C)NC(=O)Cn1c(=O)oc2cc(S(=O)(=O)N3CCc4ccccc43)ccc21	-3.3%
Cn1c(-c2ccc(F)cc2)cnc1SCC(=O)N1CCCCC1	11.8%
COc1ccc(Br)cc1CNC(=O)C1CCN(S(=O)(=O)N2CCCCC2)CC1	0.9%
CSC1=NCCN1C(=O)c1c(-c2ccccc2Cl)noc1C	2.1%
O=C(CSc1nnc(-c2ccncc2)n1Cc1ccco1)c1ccc(Cl)cc1	-15.9%

Laid out differently: results already given.
SMILES,HSD17B inhib
Cc1nc2scc(-c3cccs3)c2c(=O)n1-n1cccc1,u
O=C(CSc1nnc(-c2ccncc2)n1Cc1ccco1)c1ccc(Cl)cc1,-15.9%

(next part)
SMILES	HSD17B inhib
CN1CCN(c2nc3ccccc3nc2C(C#N)C(=O)OC2CCCCC2)CC1 (stereo not drawn)	-0.5%
COCCNC(=O)Cn1cc2c(n1)CCC(C)C2 (stereo not drawn)	2.2%
COc1ccc(S(=O)(=O)Cc2ccc(C(=O)NCCc3ccc(S(N)(=O)=O)cc3)o2)cc1	6.2%
N#Cc1cc(Sc2ccccn2)c(Sc2ccccn2)cc1C#N	12.2%
COCCN(CCOC)S(=O)(=O)c1ccc(C(=O)Nc2nnc(C3CC3)o2)cc1	-0.6%

Compound activity deposited in PubChem by National Center for Advancing Translational Sciences (NCATS).
